Screens as filed in PubChem BioAssay.
CDC25B CDK2 inh = primary biochemical HTRF screen for blockers of M-phase inducer phosphatase 2 binding to CDK2/cyclin A; HTRF CDC25B-CDK2/CyclinA binding, anti-His/anti-Flag; active compounds read high; z-score (no concentration beside the values); 0.72% of 94,000 active;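 note: score is relative to mean and SD of negative controls; strong numbers were not always called active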
TAR Tat displ = TAR RNA-Tat peptide displacers, HIV-1, primary screen, biochemical, FRET, FAM/TAMRA-labeled Tat | HIV-1 TAR RNA, Tat peptide displacement FRET; active compounds read high | z-score (no concentration beside the values) | 0.6% of 100,000 active | AID 1259389, 2018;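 note: score is relative to mean and SD of negative controls; some compounds called inactive have numbers as strong as hits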
Starred values were filed as active, the others as inactive; . = not tested or not shown.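 Rule for the calls: active = z-score from 3 up in half or more of its runs; inactive = the rest.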

SMILES	CDC25B CDK2 inh	TAR Tat displ
CC1CN(c2nc3ccccc3nc2SCC(=O)NC2CCCC2)CC(C)O1 (stereo not drawn)	-1.4	2.2
CCOC(=O)c1c(S(=O)(=O)NCC(=O)N2CCCC2)c(C)n(C)c1C	.	2.2
COc1cc(/C=C2/C(=O)NN(c3ccc(Cl)cc3)C2=O)cc(Cl)c1O	-2.9	.
Cn1cc(C(=O)NCCCN2CCCC2=O)c(=O)c2cc(S(=O)(=O)N3CCOCC3)ccc21	-0.7	-0.99
CCOC(=O)C1=C(C)N(c2ccccc2)C(=O)C1	-0.09	1.2
Cc1ccc(S(=O)(=O)Nc2cccc(-c3ccc(N4CCCC4)nn3)c2)cc1C	.	1.4
CCOc1ncnc2c1sc1nc(N3CCOCC3)c3c(c12)CC(C)(C)OC3	-1.4	.
CC1CCN(S(=O)(=O)c2cn(CC(=O)NCc3ccco3)cn2)CC1	.	0.77
c1ccc2[nH]c(NCCN3CCOCC3)nc2c1	-2	0.49
O=C(CCc1nc(-c2cccs2)no1)Nc1cccnc1	-0.62	1.6
Cn1nc(C(=O)Nc2ccc(Cl)cc2)c2c1-c1ccccc1S(=O)(=O)C2	-2.4	1.4
Cc1nnc2sc(SCc3cccc(F)c3)nn2c1=O	.	0.12

Part of the list above in order of heavy-atom count, descending:
SMILES	CDC25B CDK2 inh	TAR Tat displ
Cn1cc(C(=O)NCCCN2CCCC2=O)c(=O)c2cc(S(=O)(=O)N3CCOCC3)ccc21	-0.7	-0.99
Cc1ccc(S(=O)(=O)Nc2cccc(-c3ccc(N4CCCC4)nn3)c2)cc1C	.	1.4
CC1CN(c2nc3ccccc3nc2SCC(=O)NC2CCCC2)CC(C)O1 (stereo not drawn)	-1.4	2.2
Cn1nc(C(=O)Nc2ccc(Cl)cc2)c2c1-c1ccccc1S(=O)(=O)C2	-2.4	1.4
CCOC(=O)c1c(S(=O)(=O)NCC(=O)N2CCCC2)c(C)n(C)c1C	.	2.2
O=C(CCc1nc(-c2cccs2)no1)Nc1cccnc1	-0.62	1.6
Cc1nnc2sc(SCc3cccc(F)c3)nn2c1=O	.	0.12

Whole records from above:
CCOC(=O)C1=C(C)N(c2ccccc2)C(=O)C1 across the screens: CDC25B CDK2 inh: -0.09; TAR Tat displ: 1.2
CC1CN(c2nc3ccccc3nc2SCC(=O)NC2CCCC2)CC(C)O1 (stereo not drawn) across the screens: CDC25B CDK2 inh: -1.4; TAR Tat displ: 2.2

The list goes on.
SMILES	CDC25B CDK2 inh	TAR Tat displ
COc1ccc(NC2CC(=O)N(c3ccc(OC(C)=O)cc3)C2=O)cc1 (stereo not drawn)	-2.4	2.3
S=C(CCC(=S)Nc1ccc(Cl)cc1)Nc1ccc(Cl)cc1	-1.5	.
COc1ccc(CCNc2c3c(nc4ncnn24)CCC3)cc1OC	.	-0.04
CCN(CC)S(=O)(=O)c1ccc2c(c1)CC(C(=O)N1CCC(N3CCCCC3)CC1)N2C(C)=O (stereo not drawn)	.	1.1
CCc1ccc(C2C(C(=O)OCC3CCCO3)=C(C)NC3=C2C(=O)CC(C)(C)C3)cc1 (stereo not drawn)	-2	0.7
CS(=O)(=O)N(CC(=O)O)c1ccc2c(c1)OCO2	-0.82	0.19
CC1CCN(C(=O)Cn2c(=O)n(CC(=O)O)c(=O)c3c4c(sc32)COC(C)(C)C4)CC1	-1	0.32
O=c1[nH]c2cc3ccccc3cc2nc1-c1ccccc1NCc1ccccc1	-1.2	-3.5
CCOC(=O)c1ccc(NS(=O)(=O)c2c(C)nc3scc(C)n3c2=O)cc1	-1.2	1.1
c1ccc2cc(-c3nc(-c4ccncc4)no3)ccc2c1	-2.2	-0.18
COc1cccc2c1Oc1nc(-c3ccccc3)nc(SC)c1C2	-0.51	0.35
O=C(c1ccc(C2Nc3ccccc3S(=O)(=O)N2)cc1)N1CCN(c2ccccc2)CC1 (stereo not drawn)	.	0.41
CC(C)C(=O)Nc1nc2cc(NS(=O)(=O)c3cc(F)ccc3F)ccc2s1	.	0.24
CN(n1cnc2ccccc2c1=O)S(=O)(=O)c1ccc(Cl)cc1	-0.68	.
O=C1c2oc3ccc(F)cc3c(=O)c2C(c2cccc(O)c2)N1CCCN1CCOCC1 (stereo not drawn)	-1.3	-1.3
CC1CC(=O)N(CC(=O)N2CCCC2)c2ccccc2S1(=O)=O (stereo not drawn)	-1.6	-0.66
Cn1c(=O)c(C(=O)NCc2ccco2)c(O)c2ccccc21	.	2.2
COC(=O)c1[nH]c2c(c1C)C(=O)CCC2	0.63	0.72
COCCOC(=O)C1=C(C)NC2=C(C(=O)C(C(=O)OC)C(C)C2)C1c1coc2ccc(C)cc2c1=O (stereo not drawn)	-0.71	1
COCCn1c(SCC(N)=O)nc2c(c1=O)SCC2	-2.7	-0.87
CCn1c(N2CCOCC2)nc2c1c(=O)[nH]c(=O)n2C	0.26	2.2
Cc1ccc(/C=N/NC(=O)c2ccccc2Oc2ccccc2)o1	.	0.44
CS(=O)(=O)N(CC(=O)Nc1ccccc1C(=O)O)c1cccc2ccccc12	-2.9	.
CCOC(=O)Cn1c(=O)n(C2CCCCC2)c(=O)c2c3c(sc21)COC(C)(C)C3	-0.27	-0.89
COC(=O)c1sccc1S(=O)(=O)N1CCC(C(N)=O)(N2CCCCC2)CC1	.	0.29
CCOc1ccc(S(=O)(=O)c2c(C(=O)c3ccccc3)cnc3cc4c(cc23)OCCO4)cc1	-2.6	-1.6
O=C(Nc1ccc(Cl)c(Cl)c1)Nc1nnc(Cc2ccccc2)s1	-5.6	.
CC(=O)N1c2ccccc2CC1C(=O)N1CCN(c2ccccc2)CC1 (stereo not drawn)	.	1.6
CN1C(=O)C(C)(C)c2cc(S(=O)(=O)NCC3CCCO3)ccc21 (stereo not drawn)	.	-1.1
CCCC1N=C2c3ccccc3N=C(SCC(=O)Nc3cc(F)ccc3F)N2C1=O (stereo not drawn)	.	1.2
CC(CNc1nn2nnnc2c2ccccc12)c1ccccc1 (stereo not drawn)	.	1.3
O=C(NCc1ccc2c(c1)OCO2)c1ccc(CSc2nc3ccncc3[nH]2)cc1	4	0.51
CCCCOC(=O)COc1ccc2c(C)cc(=O)oc2c1	-1.5	.
Cc1c(CNC(=O)c2cc3nc4c(c(C(F)(F)F)n3n2)CCc2ccccc2-4)cnn1C	-2.3	.
CCN(CC)S(=O)(=O)c1ccc2c(c1)N(CC(=O)NCCN1CCOCC1)C(=O)CO2	-0.63	2.7
Cc1cccc(Nc2nc(-c3ccncc3)cs2)n1	-0.7	2.5
CN(C(=O)NCc1noc2ccccc12)c1ccc(F)cc1	.	-0.63
N#CCS(=O)(=O)c1cccs1	-0.83	.
C/C(=N\NC(N)=S)c1ccccn1	-0.95	.
COc1ccc(-c2noc(-c3nnn(-c4ccccc4)c3N)n2)cc1	0.8	-0.5
CCc1ccc(C2CC(=O)NC(SCc3ccccc3)=C2C#N)cc1 (stereo not drawn)	0.33	0.52
COc1ccc(OCC(=O)Nc2nnc(S(=O)(=O)N3CCc4ccccc43)s2)cc1	-0.58	2.6
S=c1[nH]nc(SCCSc2n[nH]c(=S)s2)s1	1.1	.
COc1ccc(-c2cnc(NCc3cccc(Br)c3)n2C)cc1	1.1	-1.1
CC1(C)Cc2ccccc2C(NC(=O)NC2CCCC2)=C1C#N	-1.4	0.96
CCc1nnc(NC(=O)CSc2nc(-c3cccs3)nc3c2c(=O)n(C)c(=O)n3C)s1	-1.7	.
CCN1CCN(C(=O)C2Cc3cc(S(=O)(=O)N4CCCCC4)ccc3N2C(C)=O)CC1 (stereo not drawn)	.	0.85
Cc1nn(C)c(C)c1CNS(=O)(=O)c1c(C)noc1C	.	0.2
CNC(=O)CN1c2ccccc2NC2=C(C(=O)CC(C)(C)C2)C1c1cccs1 (stereo not drawn)	.	0.66
CCOC(=O)NC(O)C(=O)c1cccs1 (stereo not drawn)	-1.3	-0.11
O=c1cc(CSc2n[nH]c(-c3ccccc3F)n2)nc2sccn12	.	0.11
CN1C(C(=O)c2ccccc2)=C(OC(=O)c2ccc(Cl)cc2)c2ccccc2S1(=O)=O	0.82	.
COc1ccc(C=NCc2ccc(OC)cc2)cc1	-0.38	.
COCCn1c(=O)c(C#N)cc2c(=O)n3ccccc3nc21	0.67	0.51
CCn1c(=O)[nH]c2c(c1=O)C(C)(C)Cc1ccccc1-2	-2.5	0.79
Cc1cccc(CN2c3ccccc3NC3=C(C(=O)CC(C)(C)C3)C2c2ccco2)c1 (stereo not drawn)	.	2.2
COC(=O)C1=NNC2C(=O)N(c3ccc(F)cc3)C(=O)C12 (stereo not drawn)	-1.3	0.53
O=C(O)c1cc(-c2ccc(Cl)cc2)nc2n[nH]c(-c3ccccc3)c12	-1.6	-0.83
Cc1ccc(CCNc2nc3ccccc3n3c(C)nnc23)cc1	0.99	-3.1
O=C(OC(CN1CCCCC1)CN1CCCCC1)c1ccccc1	-0.84	.

Further compounds:
SMILES	CDC25B CDK2 inh	TAR Tat displ
O=[N+]([O-])c1ccc(-c2ccc(I)cc2)cc1	-2.5	.
O=C(c1ccc2c(c1)OCCO2)c1ccccc1Br	-0.59	0.08
COCCOC(=O)C1=C(C)NC2=C(C(=O)CC(C)(C)C2)C1c1ccc(O)cc1 (stereo not drawn)	0.02	-0.09
N#Cc1c[nH]c2c(F)cccc2c1=O	-1.1	-2.2
CCOCCCN1C(=O)c2ccc(-c3ccco3)n2CC1(C)C(=O)NC1CCCC(C)C1C (stereo not drawn)	.	0.46
CCCNc1nc(N2CCCC2)c2cnn(C)c2n1	.	1.3
CCCCSc1nc2ccccc2c(=O)[nH]1	-0.77	0.67
Cc1cc(C)nc(N2C(=O)CC(Cc3ccc(Cl)cc3)C2=O)n1 (stereo not drawn)	2	1.6
CCOc1cc(C2c3c(oc4ccc(C)cc4c3=O)C(=O)N2Cc2ccccc2)ccc1O (stereo not drawn)	-1.7	0.1
COc1ccccc1NC(=O)Nc1c(SC)nsc1SC	-0.96	1.3
CCCn1c(C)ccc(-c2noc(CCCC(=O)NCC(C)C)n2)c1=O	-1.3	-0.95
O=C(Nc1ccc2c(c1)OCCO2)C1Cc2ccccc2N1C(=O)c1ccccc1 (stereo not drawn)	.	1.1
Cc1nc2sc3ccccc3n2c(=O)c1S(=O)(=O)NCc1ccc(F)cc1	.	0.99
COc1ccc(OCc2nc3ccccc3n2Cc2ccccc2)cc1	-1.1	.
Cc1c(C(=O)N2CCN(C3CCCCC3)CC2)sc2nc3n(c(=O)c12)CCCCC3	.	1.3
CC1CCCC(NC(=O)C2CCN(S(=O)(=O)c3ccc4c(c3)oc(=O)n4C)CC2)C1C (stereo not drawn)	-1.2	0.07
Cc1c2cnn(C)c(=O)c2c(C)n1Cc1cccs1	-1.2	.
CCCCOc1ccc2c3c(c(=O)oc2c1)CCCC3	0.16	.
CN1C(C(=O)N2CCc3ccccc3C2)=CC(c2ccc3c(c2)OCO3)=NS1(=O)=O	0.09	0.04
COCCCNC1=C(C#N)C(=O)NC(c2ccc(O)c(OC)c2)S1 (stereo not drawn)	-2.9	.
COc1ccc(-c2noc(NCc3ccc(F)cc3)n2)cc1	.	-1.7
Nc1cc(=O)[nH]c(SCC(=O)N2CCN(c3ccccc3)CC2)n1	1.3	1.4
O=C(O)Cn1c(=O)oc2ccccc21	-0.37	1.4
Cc1cc2c3c([nH]c2cc1S(=O)(=O)NCCCN1CCCC1)CC(C)(C)CC3=O	.	1.1
CCOC(=O)c1ccc2oc3ccc(O)cc3c(=O)c2c1	-1.4	.
O=S(=O)(NCC(c1ccco1)N1CCN(c2ccccc2)CC1)c1ccc(Br)cc1 (stereo not drawn)	.	0.65
CCOC(=O)NC(=S)Nc1cc(C)cc(C)n1	-2.2	.
C=CCn1c(SCC(=O)N2CCN(CCO)CC2)nc2sc3c(c2c1=O)CCC3	-0.8	.
COc1ccc(-c2noc(CC3=NS(=O)(=O)c4ccccc4N3)n2)cc1	0.5	-2
Cn1c(=O)n(C)c2cc(S(=O)(=O)NCc3ccccc3)ccc21	0.68	0.64
CCC(=O)N1c2ccccc2CC1C(=O)NCCc1c[nH]c2ccccc12 (stereo not drawn)	.	0.63
c1ccc2c(c1)[nH]c1nc(SCCCN3CCCCC3)nnc12	-0.02	1.6
CC1(C)CC(=O)C2=C(C1)OC(N)=C(C#N)C21CCCC1	-0.08	.
Cc1nn(-c2ccccc2Cl)cc1-c1noc(C(=O)N2CCCC2)n1	.	0.66
CC1CCCCC1NC(=O)C1CCN(S(=O)(=O)c2ccc3c(c2)C(C)(C)C(=O)N3C)CC1 (stereo not drawn)	-0.46	-0.5
O=C(NC(NC(=S)Nc1ncn[nH]1)C(Cl)(Cl)Cl)C(c1ccccc1)c1ccccc1 (stereo not drawn)	-2.8	.
COc1ccc2c(c1)CCc1c-2n[nH]c1C(=O)Nc1ccc(OC)cc1OC	.	0.43
CCc1nn(CC(=O)N2CCOCC2)c(=O)c2cc3sccc3n12	-0.37	1.4
CC(C)Cc1nn2c(=O)cc(CSc3nnc(-c4ccccc4)o3)nc2s1	-2.1	1.5
Cn1c(C(=O)O)c(N2CCCC2=O)c2cc(F)ccc21	-0.68	2.3
CCOc1cc(/C=C2/SC(=S)N(CC)C2=O)ccc1OCc1ccccc1	-2.1	.
Cc1ccc(C2CC(C(F)(F)F)n3nc(C(=O)N4CCN5CCCC5C4)c(Cl)c3N2)cc1 (stereo not drawn)	-0.35	-0.69
